Screens (PubChem BioAssay)
H5N1 antiviral – MDCK cell protection from H5N1 avian flu | inhibition, % at 50 µM | cytopathic effect, luminescence, 72 h; stronger effect = higher value; no value below 0 was filed and about half of the inactive calls have no number; reference of the scale not given here | 96,000 compounds, 0.07% hits; in the data active = inhibition above about 25%
* hit, by the source's call; i = inactive.

A first look, seven compounds:
SMILES	H5N1 antiviral
O=C(Nc1ccccc1)c1cc(S(=O)(=O)N2CCOCC2)cs1	i
Cc1cc(C)cc(OCC(=O)N2CCCCCC2)c1	3.1
Cc1ccc(C(=O)N2CCN(c3cc4c(cc3[N+](=O)[O-])n(C)c(=O)n4C)CC2)cc1	0.9
Cc1ccc(-c2nnc(Cc3ccc(Cl)cc3)o2)cc1	0.8
COc1ccc(C(c2nnnn2C2CCCC2)N2CCC(C)CC2)cc1 (stereo unspecified)	i
Cc1cccc(N(CC(O)CON=C2c3ccccc3-c3ccccc32)S(C)(=O)=O)c1 (stereo unspecified)	i
COC(=O)CSc1nnc(C2COc3ccccc3O2)n1-c1ccccc1 (stereo unspecified)	1.1

Main list (from the top)
SMILES	H5N1 antiviral
O=C(Nc1ccccc1)c1cc(S(=O)(=O)N2CCOCC2)cs1	i
Cc1cc(C)cc(OCC(=O)N2CCCCCC2)c1	3.1
Cc1ccc(C(=O)N2CCN(c3cc4c(cc3[N+](=O)[O-])n(C)c(=O)n4C)CC2)cc1	0.9
Cc1ccc(-c2nnc(Cc3ccc(Cl)cc3)o2)cc1	0.8
COc1ccc(C(c2nnnn2C2CCCC2)N2CCC(C)CC2)cc1 (stereo unspecified)	i
Cc1cccc(N(CC(O)CON=C2c3ccccc3-c3ccccc32)S(C)(=O)=O)c1 (stereo unspecified)	i
COC(=O)CSc1nnc(C2COc3ccccc3O2)n1-c1ccccc1 (stereo unspecified)	1.1
COc1ccc(OCc2n[nH]c(=S)o2)cc1	1.3
COc1cc(C2C(C(C)=O)=C(O)C(=O)N2c2ccc(C)cc2)ccc1O (stereo unspecified)	i
CCOC(=O)c1c(C)nc2c(C#N)cnn2c1C	0.9
COc1ccc(-c2cc(C(=O)NCC(C)C)no2)cc1	i
CC(C)C(c1nnnn1CC1CCCO1)N1CCN(Cc2ccc3c(c2)OCO3)CC1 (stereo unspecified)	1.6
Cc1ccc(C)c(S(=O)(=O)N2CCC(c3nc4c(nnn4Cc4ccc(F)cc4)c(=O)[nH]3)CC2)c1	2.4
COc1ccc(-c2ccc(=O)[nH]n2)cc1	i
CCOc1ccccc1C(=O)Nc1ccccc1O	1.3
CCN1C(=O)CC(NCc2ccc3c(c2)OCO3)C1=O (stereo unspecified)	i
Cc1cc(C)nc(N2CCC(CNC(=O)CCc3ccccc3)CC2)n1	2.0
C[N+]1(CCOS(=O)C23CC4CC(CC(C4)C2)C3)CCOCC1 (stereo unspecified)	0.4
O=C(CSc1cn(CCNC(=O)c2cccs2)c2ccccc12)NC1CCCC1	2.7
CCOc1cccc(C(=O)Nc2ccc3oc(Cc4ccc(Cl)cc4)nc3c2)c1	i

The last five entries of the section above lead into the next:
SMILES	H5N1 antiviral
CCN1C(=O)CC(NCc2ccc3c(c2)OCO3)C1=O (stereo unspecified)	i
Cc1cc(C)nc(N2CCC(CNC(=O)CCc3ccccc3)CC2)n1	2.0
C[N+]1(CCOS(=O)C23CC4CC(CC(C4)C2)C3)CCOCC1 (stereo unspecified)	0.4
O=C(CSc1cn(CCNC(=O)c2cccs2)c2ccccc12)NC1CCCC1	2.7
CCOc1cccc(C(=O)Nc2ccc3oc(Cc4ccc(Cl)cc4)nc3c2)c1	i
COc1ccccc1N(CN1C(=O)c2ccccc2C1=O)C(=O)c1cccnc1	1.0
COCCNC(=O)CN(C(=O)Cn1nnc2ccccc21)c1ccc(F)c(Cl)c1	i
Cc1ccc(C(=O)O)cc1S(=O)(=O)N1CCOCC1	0.2
COc1ccccc1NC(=O)Cn1nnc(-c2ccccc2NC(=O)c2cccs2)n1	i
OC(COc1ccc2cc(Br)ccc2c1)CN1CCN(c2ccccn2)CC1 (stereo unspecified)	i
O=c1oc2ccccc2n1CSc1nc2ccccc2s1	i
COC(=O)Cc1c(C)nc2nc(-c3ccc(C)cc3)[nH]n2c1=O	i
CCCCOc1ccc(C(=O)OC(C)CN(C)C)cc1 (stereo unspecified)	i
N#C/C(=C\c1ccccc1)C(=O)NC(=O)Oc1ccccc1	0.3
CCN(CC)CCCN1C(=O)C(O)=C(C(=O)c2cc3cccc(OC)c3o2)C1c1ccncc1 (stereo unspecified)	i
CCCCCOC(=O)Nc1ccc(S(=O)(=O)Nn2cnnc2)cc1	i
Cc1c(O)ccc(C(=O)COc2ccccc2F)c1O	i
CSCCC1NC2(C(=O)Nc3c2ccc(Cl)c3C)[C@@H]2C(=O)N(C3CCCC3)C(=O)[C@H]12 (stereo partly specified)	0.8
Cc1cccc(NC(NC(=O)c2cccnc2)C(Cl)(Cl)Cl)c1 (stereo unspecified)	1.8
COc1ccc(CN(C(=O)CN2C(=O)COc3ccccc32)C2CCCC2)c(OC)c1	i
Cc1c(C)[n+](=O)c(-c2ccc(F)cc2)c(C)n1[O-]	i
CC(Sc1c[nH]c2ccccc12)C(=O)O (stereo unspecified)	i
O=C1C2ON(c3ccccc3)C(c3cccnc3)C2C(=O)N1c1ccc(Cl)c(Cl)c1 (stereo unspecified)	0.2
Oc1c(C(c2ccccc2)N2CCCCC2)sc2ncnn12 (stereo unspecified)	0.0
CC(=O)Nc1nc2ccc(NC(=O)c3ccco3)cc2s1	3.1
COCCNC(=O)/C(C#N)=C/c1ccc(-c2ccc(OC)cc2[N+](=O)[O-])o1	i
O=C(Nc1sc2c(c1C(=O)O)CCC2)c1cccs1	i
O=c1oc2ccccc2c2c1ncn2-c1ccccc1	2.5
CCOC(=O)Cc1cc(=O)n2[nH]c(C)c(-c3ccc(OC)cc3)c2n1	1.1
CCOC(=O)C(C)Sc1nc2c(c(=O)[nH]c(=O)n2C)n1CCc1ccccc1 (stereo unspecified)	1.3
Cc1ccc(NC(=O)Cn2nnc(C(=O)Nc3ccc(C)c(C)c3)c2N)cc1	1.2
CCOC(=O)CSc1nnc(CNc2cccc(Cl)c2)n1-c1ccccc1	0.6
Cc1ccc(S(=O)(=O)NC(C)C(=O)Nc2ccc(C(N)=O)cc2)cc1 (stereo unspecified)	0.6
COc1ccc(CNC(=O)CCCCCn2c(SCC#N)nc3cc4c(cc3c2=O)OCO4)cc1	1.0
O=C(c1ccccc1[N+](=O)[O-])N1CCC(Cc2ccccc2)CC1	0.1
CS(=O)(=O)Nc1ccc(-c2n[nH]c(=S)n2-c2ccccc2)cc1	i
Cc1cccc(NC(=S)NNC(=O)c2nn(C)cc2Cl)c1	i
COc1ccc(NC(=O)c2ccc(COc3ccccc3)o2)cc1	i
CCCC(C)NC1=NCCCCC1 (stereo unspecified)	i
Nc1nc(N2CCOCC2)cc(=O)[nH]1	0.5
CC(C)N(CCNC(=O)C1CCN(S(=O)(=O)N2CCOCC2)CC1)Cc1ccccc1	0.4
c1ccc2sc(N3CN(CCN4CCOCC4)CN(c4nc5ccccc5s4)C3)nc2c1	3.7
Fc1ccccc1COc1ccccc1CNCc1ccncc1	0.1
COc1ccc(OCCSc2ncn[nH]2)cc1	0.5
Cc1c(C(=O)N2CCN(c3ccccc3)CC2)sc2ncnc(N3CCC(C)CC3)c12	i
CC1Cc2cc(-c3csc(NC(=O)Cc4cccs4)n3)ccc2N1S(C)(=O)=O (stereo unspecified)	5.0
CCC(CC)C(=O)c1c[nH]c(C(=O)NCc2ccco2)c1	0.7
N#Cc1nc(-c2cccs2)oc1N1CCN(Cc2ccccc2)CC1	i
CC(CC(=O)O)CC(=O)Nc1ccccc1C(=O)O (stereo unspecified)	i
COCCCn1c(SCC(=O)n2c(C)c(C)c3ccccc32)nnc1-c1ccoc1C	1.1
c1ccc(Nc2cc(Nc3ccccc3)[nH]n2)cc1	i
CCOC(=O)Cn1nc(-c2ccc(F)cc2)oc1=O	i
CCN(CC)c1ccc(/C=N/NC(=S)NCc2ccccc2)cc1	1.9
CC(=O)O/N=C/c1c(N2CCOCC2)n(C)c2ccccc12	i
COC(=O)c1ccc(N/C(C)=C/C(=O)c2ccc(C)o2)cc1	i
O=C(O)Cn1c(=O)cnc2ccccc21	i
CCOC(=O)c1c(NC(=O)c2cc(C)oc2C)sc(C(=O)Nc2ccc(Cl)cc2)c1C	i
COc1ccccc1-c1nnc(Sc2nc([N+](=O)[O-])nn2C)o1	i
COc1ccc(C2N(C(=O)CN3CCOCC3)CCN2S(=O)(=O)c2ccccc2)cc1 (stereo unspecified)	i
O=C(/C=C/c1ccccc1Cl)NCc1ccccc1	0.4
Cn1cnnc1SCc1ccccc1	0.6
Cc1cc(N2CCN(c3cccc(C(F)(F)F)c3)CC2)n2ncnc2n1	0.8
CC1CCN(c2ccc(C(=O)O)cc2)CC1	1.5
CC1(c2ccccc2)NC(=O)N(CC(=O)NC(=O)NCc2ccco2)C1=O (stereo unspecified)	i
CCN(C(=O)c1cn(C)c(=O)c2cc(OC)c(OC)cc12)c1cc(C)ccc1C	0.6

Later entries
SMILES	H5N1 antiviral
CCc1cc(C(=O)NNC(=S)NC(C)c2ccccc2)cs1 (stereo unspecified)	i
O=C(NC1CCCCC1)C(c1ccc2ncccc2c1)N(Cc1cccs1)C(=O)c1cccs1 (stereo unspecified)	0.7
COC(=O)Nc1sc2c(c1C(=O)NCc1ccco1)CCC2	i
O=C1CC(O)(C(F)F)Oc2ccc3ccccc3c21 (stereo unspecified)	0.1
O=C(CSc1nncn1-c1ccccc1)Nc1ccc(N2CCOCC2)cc1	i
COc1ccc(C(C(=O)NC2CCCCC2)N(Cc2cccs2)C(=O)Cc2c[nH]c3ccccc23)cc1 (stereo unspecified)	i
CC(=O)OCc1c(COC(C)=O)[n+](=O)c2ccccc2n1[O-]	i
CC(=O)Nc1ccc(C(=O)OCC(=O)c2ccc(C)c([N+](=O)[O-])c2)cc1	i
CCOc1cc(C(=S)N2CCOCC2)ccc1O	i
CN(CCC#N)C(=O)Cn1nc(Cc2ccncc2)c2ccccc2c1=O	1.1
COc1ccc(CCNc2nc(-c3cccnc3)cs2)cc1OC	0.7
O=C(NCCN1CCCCCC1)C1CCC(CNS(=O)(=O)c2cccc3cccnc23)CC1 (stereo unspecified)	0.9
O=C(NCc1ccccc1)C(c1ccc(F)cc1)N(Cc1ccco1)C(=O)c1ccccn1 (stereo unspecified)	i
CC(C)NC(=O)COc1ccc(Cl)cc1Cl	i
Cc1ccc(OCCSc2cc(C)nc(N)n2)cc1	i
O=C(COC(=O)C1CCN(S(=O)(=O)c2cccs2)CC1)c1ccc2c(c1)OCCO2	0.1
Clc1cccc(Cl)c1Cn1cc(Br)cn1	0.4
S=c1[nH]nc(COc2ccccc2)n1/N=C/c1ccc(Br)s1	0.1
O=C(c1cnn(-c2nc3ccccc3s2)c1)c1ccccc1O	i
COc1ccccc1N1CCN(C(=O)CSc2nnc(-c3ccoc3C)o2)CC1	i
CCOC(=O)C(C)S(=O)(=O)c1ccc(C(F)(F)F)cn1 (stereo unspecified)	1.7
COC(=O)Nc1ccc(S(=O)(=O)N2CCN(C)CC2)cc1	0.4
Cc1cc(Br)ccc1OCCCCNC(C)(C)C	i
CCCSc1nc(N)c2c3c(sc2n1)CN(C)CC3	22
Cc1cccc2c(=O)c(C(=O)N3CCCCCC3)c[nH]c12	0.4
Cc1cccc(NC(=O)CS(=O)(=O)c2cn(C)c3ccccc23)c1C	0.4
O=C1c2ccccc2OCOc2ccccc21	i
COc1cc2c(cc1NC(=O)c1ccco1)CCCC2	i
COc1ccccc1-n1c(=O)[nH]c2c(C(N)=O)nc(CC(C)C)nc21	0.4
Cc1[nH]c2ccccc2c1/C=N/n1cnnc1	i
Cc1ccc(C(=O)Nc2cccc(Oc3ccccc3)c2)o1	i
Cc1sc2nc(N)sc2c1C	i
O=C(NC1CCS(=O)(=O)C1)c1ccccc1C(=O)c1ccccc1 (stereo unspecified)	i
COC(=O)CN(CCc1ccccc1)S(=O)(=O)c1ccc(OC)c(OC)c1	0.7
O=C1OCC(CO)(CO)N=C1NNc1ccccc1Cl	i
O=C(NCc1ccc2c(c1)OCO2)C1CCN(S(=O)(=O)c2cccc3nsnc23)CC1	i
COC(=O)c1ccc(NC(=S)Nc2ccc3ccccc3c2)cc1	i
O=S(=O)(c1ccc(C2=CSC3=NCCN23)cc1)N1CCOCC1	1.0
COCCN1C(=O)C(O)=C(C(C)=O)C1c1ccc(OC)c(OC)c1 (stereo unspecified)	0.3
CON(c1nc(N(C)C)nc(N(C)C)n1)S(=O)(=O)c1ccccc1Cl	i

Copied from the results shown, 5 compounds:
SMILES	H5N1 antiviral
O=C(NCc1ccc2c(c1)OCO2)C1CCN(S(=O)(=O)c2cccc3nsnc23)CC1	i
COC(=O)c1ccc(NC(=S)Nc2ccc3ccccc3c2)cc1	i
O=S(=O)(c1ccc(C2=CSC3=NCCN23)cc1)N1CCOCC1	1.0
COCCN1C(=O)C(O)=C(C(C)=O)C1c1ccc(OC)c(OC)c1 (stereo unspecified)	0.3
CON(c1nc(N(C)C)nc(N(C)C)n1)S(=O)(=O)c1ccccc1Cl	i

Continuation:
SMILES	H5N1 antiviral
Cc1cc(C)cc(OCC(=O)Nc2ccc(N3CCCC3)cc2)c1	i
Cc1ccc(C(=O)c2cc([N+](=O)[O-])ccc2N2CCN(C)CC2)cc1	i
O=C(CN(Cc1ccco1)C(=O)c1cc(=O)[nH]c2ccccc12)Nc1ccccc1C(F)(F)F	i
CC1Cc2ccccc2N1CC(=O)NC(=O)NCc1ccco1 (stereo unspecified)	0.2
O=C(NCc1ccco1)C(c1ccccc1F)N(CC1CCCO1)C(=O)Cn1nnc2ccccc21 (stereo unspecified)	2.0
CC(=O)c1ccc(N(C(=O)Cc2c[nH]c3ccccc23)C(C(=O)NC2CCCCC2)c2cccs2)cc1 (stereo unspecified)	i
O=C(C1CC(c2cccc(Br)c2)=NO1)N1CCc2ccccc2C1 (stereo unspecified)	i
CCOc1ccc(OCCCCN(C)C)cc1	i
Cc1nc2ccccc2c(=O)n1-c1ccccc1C(F)(F)F	i
Cc1nn(-c2ccc(F)cc2)c2sc(C(=O)OC3CCOC3=O)cc12 (stereo unspecified)	i
COC(=O)c1cc(C(=O)OC)cc(N2C(=O)CC(N3CCN(c4ccccc4)CC3)C2=O)c1 (stereo unspecified)	1.3
CCCS(=O)(=O)N1CCCC(C(=O)NCCCN2CCN(c3ccccc3F)CC2)C1 (stereo unspecified)	0.2

Rewritten comma-delimited: entries from further up
mol,H5N1 antiviral
O=C(CN(Cc1ccco1)C(=O)c1cc(=O)[nH]c2ccccc12)Nc1ccccc1C(F)(F)F,i
CC1Cc2ccccc2N1CC(=O)NC(=O)NCc1ccco1 (stereo unspecified),0.2

Some of the compounds tested. The share of hits here may be higher or lower than overall.
